VDR inhibitor = vitamin D3 receptor (human) inhibition | actives 0.93% (n = 400,000) | Potency, µM, for inactives: max response, negative = inhibition, hits mostly inhibitors | VDR-SRC2-3 peptide fluorescence polarization, 2 h | P11473 | AID 504847; active = well fitted inhibition curve with a large enough effect; inconclusive = small, poorly fitted or top-dose-only effect, or another doubt; inactive = no such curve, though single readings can be large or run the other way; also: series mostly up to about 120 µM
Target sequence (P11473 whole entry, looked up): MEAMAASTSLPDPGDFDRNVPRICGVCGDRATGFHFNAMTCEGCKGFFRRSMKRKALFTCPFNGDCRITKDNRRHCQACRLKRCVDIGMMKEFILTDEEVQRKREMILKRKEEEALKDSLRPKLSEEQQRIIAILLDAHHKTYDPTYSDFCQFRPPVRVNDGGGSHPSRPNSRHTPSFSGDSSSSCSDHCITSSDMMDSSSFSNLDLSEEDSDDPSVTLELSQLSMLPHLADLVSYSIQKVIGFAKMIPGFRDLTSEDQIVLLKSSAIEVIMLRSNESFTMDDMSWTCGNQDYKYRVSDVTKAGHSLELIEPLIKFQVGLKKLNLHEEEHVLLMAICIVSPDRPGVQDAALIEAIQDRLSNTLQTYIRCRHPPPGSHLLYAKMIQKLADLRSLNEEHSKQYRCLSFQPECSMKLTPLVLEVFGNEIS
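Reagent solutions, kept cold and dark, are dispensed first; compounds are then pinned in at 23 nl, plates briefly spun, and incubated 2 h at ambient temperature. Inhibition of VDR–SRC2-3 peptide binding is read by fluorescence polarization.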
Starred values were filed as active, the others as inactive; ? = inconclusive; & = joins results of further samples. % is scaled to controls: 0 for no effect and ±100 for the full control effect; potency is read from the fitted curve at half-maximal effect. Not all compounds are listed; count on the stated rates, not on these rows.

SMILES	VDR inhibitor
COCCn1c(COc2cccc(OC)c2)nnc1SCC(=O)NC1CCCCC1	6%
CC(NS(=O)(=O)c1ccc2c(c1)c(=O)n(C)c(=O)n2C)C(=O)NC1CCCCC1 (centres undefined)	-29%
COc1ccccc1CCNC(=O)C(=O)NCC1OCCN1S(=O)(=O)c1ccc([N+](=O)[O-])cc1 (centres undefined)	-14%
O=C(Nc1csnn1)OCc1ccccc1	-11%
CCCc1ccc(OCc2ccccc2)c2c(=O)cc(C(=O)OCC)oc12	-12%
O=C(CSc1nccn1Cc1ccc(F)cc1)NC1CCCC1	-3%&-1%
O=C(c1ccc(Cl)cc1)C1CCN(C(=O)c2ccc(F)cc2)CC1	-12%
Cc1coc2c(C)c3oc(=O)c(CC(=O)N[C@@H](CC(C)C)C(=O)O)c(C)c3cc12	-4%
CCOC(=O)c1c(NC(=O)CCCC(=O)O)sc2c1CCC2	9%
O=C(CC1N=C2c3ccccc3N=C(SCC(=O)Nc3cccc(Cl)c3)N2C1=O)NCc1cccs1 (centres undefined)	6%
NC(=O)c1ccccc1-c1nc(-c2ccccc2)no1	23%
Cc1ccccc1NC(=O)CC(C)S(=O)(=O)c1ccc2c(c1)NC(=O)CO2 (centres undefined)	3%
O=C(CCC(F)(F)F)N1CCCC(CO)(CCc2ccccc2)C1 (centres undefined)	-15%
c1ccc(-c2csc(N3CCOCC3)n2)cc1	-18%
O=C1CN(C(=O)COC(=O)C2CC(=O)N(Cc3ccco3)C2)c2ccccc2N1 (centres undefined)	0%
O=C(CSc1nc(=O)n(CCCN2CCOCC2)c2c1CCCC2)Nc1ccc(Cl)cc1	-6%
Nc1nnc(/C=C/c2ccccc2)s1	-11%
CCOC(=O)C1CCCN(S(=O)(=O)CCNC(=O)c2ccccc2)C1 (centres undefined)	14%
CCCCN(Cc1cc2cc(OC)ccc2[nH]c1=O)S(=O)(=O)c1ccc(C)cc1	2%
c1ccc(C(c2ccccc2)c2ccn[nH]2)cc1	-25%
COc1cc(/C=C/C(=O)OC[C@H]2O[C@H](OC3(CO)OC(CO)C(O)C3O)[C@H](O)[C@@H](O)[C@@H]2O)ccc1O (some centres undefined)	3%
COc1ccc(/C=C/C(=O)OCC(=O)NCc2ccco2)c(OC)c1	-8%
Clc1ccc(OCCN2CCCCC2)cc1Cl	-14%
CC(=O)Nc1cccc(OCCCNC(=O)C2CCC2)c1	-15%
Cc1ccc(S(=O)(=O)N2CCOCC2)cc1NC(=O)COC(=O)c1cc(=O)[nH]c2ccccc12	-9%
CN(C)c1ncc2nc(-c3ccc(Cl)cc3)c(=O)n(C[C@H]3CCCO3)c2n1	-9%
COCCn1c(SCC(=O)c2ccccc2)nc2cc(C(=O)NC3CCCC3)ccc2c1=O	-1%
Cc1ccc(Cl)cc1NC(=O)CN1CCN(C(=O)C2CCCO2)CC1 (centres undefined)	-3%
O=C(NCCCn1ccnc1)C1CC(c2cccc(Br)c2)=NO1 (centres undefined)	-6%
Cc1cc(C)c(C)c(S(=O)(=O)N2CCN(C(=O)c3ccncc3)CC2)c1C	7%
CSc1sc(C(=O)NN)c2c1C(O)CCC2 (centres undefined)	-10%
N#CC(C(=O)Nc1ccccc1)=C1CCCCC1	-9%
Cc1ccc(NC(=O)c2nc[nH]c2C(=O)NCCCNC(=O)c2[nH]cnc2C(=O)Nc2ccc(C)cc2)cc1	-2%
C#CCCCCCCCCC(=O)NCCCC	15%
COc1ccc(N(C(=O)c2cccnc2)S(=O)(=O)c2ccc3c(c2)n(C)c(=O)n3C)cc1	17%
COc1cccc(NC(=O)c2nn(C)c3c2CS(=O)(=O)c2ccccc2-3)c1	-3%
CCOC(=O)[C@H]1[C@H]2COc3ccc(OC)cc3[C@@H]2N2C(=O)c3cc(OC)ccc3NC(=O)[C@@]12C	-15%
CN(C)c1ccc(N=Nc2ccccc2C(=O)OCC(=O)N(C)c2ccccc2)cc1	16%
Cc1cc(C)c2[nH]c(=O)c(CN(CC3CCCO3)S(=O)(=O)c3ccc4c(c3)OCCO4)cc2c1 (centres undefined)	-2%
O=C(c1ccc2ncsc2c1)N1CCN(c2ccccc2Cl)CC1	24%
CCCC1=C(C(=O)OCC)C(c2ccc(F)cc2)n2ncnc2N1 (centres undefined)	8%
COc1cc2c(C(=O)N3CCN(c4cccc(C)c4)C(C)C3)cn(CC(C)C)c(=O)c2cc1OC (centres undefined)	-18%
CN(C)C(CNC(=O)c1cc(S(=O)(=O)N2CCOCC2)ccc1Cl)c1cccs1 (centres undefined)	8%
O=C(/C=C(O)/C=C/c1ccc(O)cc1)/C=C/c1ccc(O)cc1	-25%
CC(=O)c1ccc(N2CCN(CC(=O)N(CC(C)C)c3c(N)n(CC(C)C)c(=O)[nH]c3=O)CC2)cc1	-11%
Cc1ccccc1NC(=O)NC1(C(=O)N2CCOCC2)CCCCC1	0%
Cc1[nH]c2ccccc2c1/C=N/NC(=S)NC(C)C	4%
COc1ccc2c(C)cc3nncn3c2c1	-16%
COC(=O)c1ccccc1NC(=O)Nc1cc(C(C)(C)C)on1	0%
CCOC(=O)c1c(NC(=S)NC(=O)c2ccc(Cn3cc(Cl)cn3)o2)sc2c1CCC(C)C2 (centres undefined)	24%
(next part)
SMILES	VDR inhibitor
O=C(NC1CCCN(Cc2ccc(Cl)cc2)C1)c1cnc2ccccn2c1=O (centres undefined)	?
O=C(O)C1CC=CCC1C(=O)Nc1ccccc1 (centres undefined)	18%
O=C(Nc1cccnc1)c1sc(Nc2ccccc2)nc1-c1ccccc1	-13%
COc1ccc2oc(=O)c(-c3csc(-c4ccc(Br)cc4)n3)cc2c1	10%
O=C(CN1C(=O)CSc2ccc(S(=O)(=O)N3CCOCC3)cc21)NCCCN1CCOCC1	9%
O=C(Nc1ccc2c(c1)C(N1CCOCC1)c1ccccc1-2)C(F)(F)F (centres undefined)	-7%
CCc1ccc(-c2nc(CSCC(=O)NCc3ccccc3OC)c(C)o2)cc1	-6%
Cc1cc2oc(C(=O)Nc3sc4c(c3C(=O)NCc3ccco3)CCC4)cc(=O)c2cc1C	2%
Cc1nc(C(=O)N2CCCC(C(=O)c3cccc(OC(C)C)c3)C2)cs1 (centres undefined)	-3%
O=C(c1ccccc1)N1CCN(c2ccc([N+](=O)[O-])c(NCc3ccco3)c2)CC1	2%
O=C(CSc1nncs1)NC(=O)NC1CCCC1	-14%
CC1(C)Cc2ccccc2-c2nnc(SCc3ccccc3)n21	-14%
Cc1ccc(NC(=O)Cn2nnc(C(=O)NCc3ccco3)c2N)cc1	6%
CC(C)c1nc(NCCO)c2nnn(Cc3ccccc3)c2n1	-10%
COc1ccc(-c2nnc(SCc3cc(=O)c4cc(C)cc(C)c4[nH]3)n2C)cc1	3%
COc1ccc(N=C2SC(C(=O)Nc3ccc(OC)cc3)CC(=O)N2CCN2CCOCC2)cc1 (centres undefined)	5%
CCCCC/C=C\C\C=C/C=C/C=C/[C@@H](SCC(N)C(=O)O)[C@@H](O)CCCC(=O)O (some centres undefined)	7%
CCC(C)NCC(=O)Nc1cc(S(=O)(=O)N(CC)c2ccccc2)ccc1Cl (centres undefined)	-16%
COC(=O)/C=c1/s/c(=C(/C#N)C(=O)NCc2ccccc2)n(-c2ccccc2)c1=O	-4%
CC1CCN(C(=O)CSc2nnc3c(n2)[nH]c2ccc(F)cc23)CC1	-15%
CN(C)c1cccc(C(=O)NNC(=O)NC2CCCCC2)c1	21%
CC(=O)c1ccc(S(=O)(=O)Nc2ccc(C(=O)NC3CC3)cc2)cc1	-13%
O=C(c1ccc2ccccc2c1)N1CCN(S(=O)(=O)/C=C/c2ccccc2)CC1	9%
COCCN1C(=O)N[C@@H](c2cccs2)C(C(C)=O)=C1C	-20%
CC1CN(C)CCC1OC(=O)c1ccccc1 (centres undefined)	-13%
COc1ccc(NC(=O)c2sc3nc(Cc4ccccc4)cc(C(F)(F)F)c3c2N)cc1OC	-5%
O=C(Nc1cccc(Cl)c1)N(Cc1nc2ccccc2c(=O)[nH]1)Cc1cccs1	-15%
Cc1cnn(C(=O)c2oc3ccccc3c2C)c1	10%
O=C(CCC1CCCN(C(=O)c2ccoc2)C1)NCc1ccccc1F (centres undefined)	-3%
CN(CC(=O)Nc1ccc(F)c(F)c1F)C(=O)C1CSC2(C)CCC(=O)N12 (centres undefined)	-1%
Cn1c(SC2CCCCC2=O)nnc1-c1ccccc1F (centres undefined)	-1%
Cc1ccccc1-n1ccnc1SCC(=O)NCC1CCCO1 (centres undefined)	18%
CC1=C(C(N)=O)C(c2cccc(Br)c2)n2nc(SCc3ccccc3)nc2N1 (centres undefined)	-7%
COc1ccc(OCC(=O)Nc2nnc(C)s2)cc1	3%
Cc1cc(Nc2ccc(O)cc2)n2c(nc3ccccc32)c1C#N	2%
COc1ccc(C(=O)Nc2ccc(C(=O)NCC3CCCO3)cc2)c(OC)c1OC (centres undefined)	9%
CSc1ccc(C2=CC(=O)C[C@H](c3ccc(Cl)cc3)C2)cc1	-7%
Cc1ccc(S(=O)(=O)N2CCC(C(=O)NNC(=O)c3ccccc3O)CC2)cc1	-8%
OCCOCCn1c(C2CCCN2c2nc(-c3ccc(F)cc3)cs2)nc2cc(C(F)(F)F)ccc21 (centres undefined)	-14%
COC(=O)COc1ccc(S(=O)(=O)NCc2ccncc2)cc1	-7%
COc1cc(NC(=O)CCN2C(=O)NC3(CCCC3)C2=O)c(OC)cc1Cl	6%
COc1ccc(Nc2c3c(nc4ccc(C)cc24)CCC3)cc1	12%
c1ccc(-c2nn3c(-c4ccccc4)nnc3s2)cc1	-8%
CC(C)c1ccc(SCc2noc(C(=O)NCC3CCCO3)c2C(=O)O)cc1 (centres undefined)	-24%
COc1ccc(C2CC(C)(c3ccc(OC)cc3)Nc3ccccc3N2)cc1 (centres undefined)	0%
CN(C)/C=C(/C(=O)c1ccccc1Cl)S(C)(=O)=O	16%
Cc1ccc(C(=O)OCC(=O)NCc2ccco2)cc1	-1%
O=C(CCCSc1nc2ccccc2[nH]1)Nc1ccccc1	7%
CNC(=O)CSc1cn(CC(=O)N(C(C)C)C(C)C)c2ccccc12	-8%
COc1ccc(-n2nc(C(=O)O)c3ccccc3c2=O)c(OC)c1	20%
Other structures.
SMILES	VDR inhibitor
CC(C)n1cc(NC(=O)C2CC(c3cccc(Br)c3)=NO2)cn1 (centres undefined)	16%
C=CCn1cc(C(=O)NCCCN(CC)CC)c(=O)c2cc(S(=O)(=O)N3CCC(C)CC3)ccc21	-13%
O=C(Nc1ccc(O)c2c(=O)cc(-c3ccccc3Cl)oc12)c1cc(Cl)cc(Cl)c1	7%
Cc1ccc(S(=O)(=O)NCC(Nc2cccc(Cl)c2)c2ccccc2)cc1 (centres undefined)	11%
Cc1cccc(C)c1OCC(=O)N1CCC(c2nc3ccccc3o2)CC1	5%
COc1ccccc1C(=O)CSc1nccn1C	-10%
Cc1ccc(-c2csc(NC(=O)Cc3cccs3)n2)cc1C	4%
O=C(Nc1cnc2ccccc2c1)c1cccc(-n2cnnn2)c1	-7%
NC(=O)c1ccccc1OCC(=O)Nc1ccc2c(c1)CCC2	5%
COCCn1c(C)cc(C(=O)COC(=O)c2cccc(O)c2)c1C	-14%

Reformatted bar-delimited: entries from further up
SMILES | VDR inhibitor
C=CCn1cc(C(=O)NCCCN(CC)CC)c(=O)c2cc(S(=O)(=O)N3CCC(C)CC3)ccc21 | -13%
O=C(Nc1ccc(O)c2c(=O)cc(-c3ccccc3Cl)oc12)c1cc(Cl)cc(Cl)c1 | 7%
Cc1ccc(S(=O)(=O)NCC(Nc2cccc(Cl)c2)c2ccccc2)cc1 (centres undefined) | 11%
Cc1cccc(C)c1OCC(=O)N1CCC(c2nc3ccccc3o2)CC1 | 5%

Reprinted at random: 5 records from the list.
SMILES	VDR inhibitor
COCCn1c(C)cc(C(=O)COC(=O)c2cccc(O)c2)c1C	-14%
Cc1cccc(C)c1OCC(=O)N1CCC(c2nc3ccccc3o2)CC1	5%
COc1ccccc1C(=O)CSc1nccn1C	-10%
CC(C)n1cc(NC(=O)C2CC(c3cccc(Br)c3)=NO2)cn1 (centres undefined)	16%
NC(=O)c1ccccc1OCC(=O)Nc1ccc2c(c1)CCC2	5%

Returning to the listing, repeating the 7 entries before the break.
SMILES	VDR inhibitor
Cc1ccc(S(=O)(=O)NCC(Nc2cccc(Cl)c2)c2ccccc2)cc1 (centres undefined)	11%
Cc1cccc(C)c1OCC(=O)N1CCC(c2nc3ccccc3o2)CC1	5%
COc1ccccc1C(=O)CSc1nccn1C	-10%
Cc1ccc(-c2csc(NC(=O)Cc3cccs3)n2)cc1C	4%
O=C(Nc1cnc2ccccc2c1)c1cccc(-n2cnnn2)c1	-7%
NC(=O)c1ccccc1OCC(=O)Nc1ccc2c(c1)CCC2	5%
COCCn1c(C)cc(C(=O)COC(=O)c2cccc(O)c2)c1C	-14%
COc1ccc(C(=O)NCC(=O)NCC(=O)OCc2ccc(Br)cc2)cc1	6%
Cc1ccc(OCC(=O)OCc2cc(=O)n3nc(C4CCCCC4)sc3n2)cc1	7%
CC(=O)N1c2ccc(S(=O)(=O)NCCC(=O)NCCc3cccc(C)c3)cc2CC1C (centres undefined)	-13%
N#Cc1cccc(NC(=O)N2CC[C@@]3(CCCN(C(=O)c4ccco4)C3)C2)c1	-5%
CCOC(=O)c1cccc(NC(=O)CSc2nc3ccccc3c(=O)n2CC)c1	-6%
O=C(NC(=S)Nc1ccccc1C(=O)O)c1cncc(Br)c1	50µM*
Cc1ccc(-c2csc3ncn(Cc4ccc(C(=O)O)cc4)c(=O)c23)cc1C	3%
CCC(=O)c1ccc(OCc2ccccc2)c(OC)c1	-8%
Cc1ccc(NC(=S)NNC(=O)c2nnn(-c3ccccc3)c2C)cc1	-18%
CCOC(=O)c1c(N)sc(C(O)(C(F)(F)F)C(F)(F)F)c1-c1ccc(F)cc1	7%
Cc1cccc(-n2cc(C#N)c(=O)[nH]c2=O)n1	3%
Cc1ccc2c(c1)/C(=C/c1ccc(F)cc1)C(=O)N2	?
C/C(=N/NS(=O)(=O)c1ccc(C)cc1C)c1ccc2c(c1)OCO2	10%
